Source: PubChem
eIF4H inh: human eIF4H binding inhibitors, primary screen, translation initiation inhibitor project, biochemical, uHTS, fluorescence polarization | Eukaryotic translation initiation factor 4H (Homo sapiens), Q15056 | eIF4H fluorescence polarization binding assay | inhibition, % at 35 µM | actives 0.94% (n = 290,000) | AID 2012, 2009;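 active = 50% or more with normal probe brightness, or confirmed in later tests; about a fifth of its hits are not listed in these tables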;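 also: calls also rest on retests at 20 µM and on dose response follow-up; 0% = protein and probe with vehicle and 100% = probe without protein; strong numbers were not always called active; many hits fall short of the cut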
Rce1 inh: yeast Rce1p protease inhibitors, primary screen, biochemical, fluorescence, cell-free homogeneous. calls only. actives 0.27% (n = 290,000). yeast membranes, quenched prenylated peptide cleavage fluorescence;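 active = fall in fluorescence gain of 50% or more versus controls, with final raw signal at or below 3038400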;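 also: plate controls were neutral control wells for no effect and wells lacking membranes for full effect; tested at 10 µM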
Target sequence (Q03530 whole entry, looked up): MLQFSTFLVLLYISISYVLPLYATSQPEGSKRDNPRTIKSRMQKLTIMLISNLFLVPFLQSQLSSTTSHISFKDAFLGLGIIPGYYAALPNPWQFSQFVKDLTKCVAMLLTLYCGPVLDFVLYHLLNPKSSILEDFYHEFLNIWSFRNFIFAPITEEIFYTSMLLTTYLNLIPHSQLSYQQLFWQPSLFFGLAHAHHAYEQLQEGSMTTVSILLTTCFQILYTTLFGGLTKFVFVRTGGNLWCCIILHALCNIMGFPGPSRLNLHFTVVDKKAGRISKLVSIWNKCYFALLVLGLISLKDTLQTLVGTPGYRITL
UUG fidelity: modulators of yeast start codon fidelity, primary screen, whole organism, S. cerevisiae, single point, plate reader | S. cerevisiae UUG-firefly luciferase reporter, luminescence/redox ratio | activity score, % at 18.7 µM | actives 0.13% (n = 350,000) | AID 602363, 2012;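 active = replicate mean at a twofold rise or more, about +100% in these data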;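 also: firefly luciferase made from a UUG start codon reports start codon fidelity; reporter light over untreated wells divided by growth signal over untreated wells; some hits fall short of that in this replicate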
CSC inhib: cancer stem cell viability inhibitors, primary screen, luminescence; cancer stem cell-like cells viability; inhibition, % at 7.5 µM; actives 1.1% (n = 300,000); AID 2717, 2010;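 active = mean at 75% or more and at least half the replicates too; tested in HMLE shEcad cells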;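 also: 0% = median of negative and 100% = median of positive control wells; the first replicate is given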
MT1-MMP act inh: blockers of MT1-MMP proenzyme processing, primary screen, HT1080 RFP-PRO-GFP cells, GFP/RFP fluorescence; actives 0.061% (n = 360,000); GFP/RFP ratio fluorescence, overnight; percent of plate control window, DMSO zero; GFP/RFP ratio change, % at 20 µM; AID 651647, 2012; Matrix metalloproteinase-14 (Homo sapiens), P50281;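 active = GFP/RFP ratio change of at least 30% with cell ATP level not reduced by more than half and red fluorescence within 50% of control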; also: strong numbers were not always called active
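Assay system – RFP-PRO-GFP reporter HT1080 cells · Compound dosing – single dose of 20 µM compound, 1% DMSO final · Incubation – overnight compound exposure at 37 °C · Measure – GFP/RFP fluorescence ratio · Benchmarks – DMSO wells and RFP-L50D-GFP cells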
Env fusion inh: inhibitors of HIV-1 Env-driven cell-cell fusion, primary screen, HeLa-JRFL effector, CEM21 target cells, luciferase; inhibition, % at 12.3 µM; actives 1.1% (n = 360,000); AID 651610, 2012;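 active = mean replicate inhibition score of at least 50 and every replicate individually at or above 50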;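 also: 0% = plate neutral controls and 100% = maraviroc near 300 nM; one replicate is shown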
PABP FP inh: PABP poly(A) RNA binding inhibitors, primary screen, biochemical, fluorescence polarization, uHTS; Polyadenylate-binding protein 1 (Homo sapiens), P11940; inhibition, % at 35 µM; actives 1% (n = 290,000);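 active = 50% or more with normal probe brightness, or confirmed in later tests; about a fifth of its hits are not listed in these tables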;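 also: calls also rest on retests at 20 µM and on dose response follow-up; controls were probe without protein and protein plus probe with vehicle; some compounds called inactive have numbers as strong as hits; many hits fall short of the cut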
Target sequence (P11940 whole entry, looked up): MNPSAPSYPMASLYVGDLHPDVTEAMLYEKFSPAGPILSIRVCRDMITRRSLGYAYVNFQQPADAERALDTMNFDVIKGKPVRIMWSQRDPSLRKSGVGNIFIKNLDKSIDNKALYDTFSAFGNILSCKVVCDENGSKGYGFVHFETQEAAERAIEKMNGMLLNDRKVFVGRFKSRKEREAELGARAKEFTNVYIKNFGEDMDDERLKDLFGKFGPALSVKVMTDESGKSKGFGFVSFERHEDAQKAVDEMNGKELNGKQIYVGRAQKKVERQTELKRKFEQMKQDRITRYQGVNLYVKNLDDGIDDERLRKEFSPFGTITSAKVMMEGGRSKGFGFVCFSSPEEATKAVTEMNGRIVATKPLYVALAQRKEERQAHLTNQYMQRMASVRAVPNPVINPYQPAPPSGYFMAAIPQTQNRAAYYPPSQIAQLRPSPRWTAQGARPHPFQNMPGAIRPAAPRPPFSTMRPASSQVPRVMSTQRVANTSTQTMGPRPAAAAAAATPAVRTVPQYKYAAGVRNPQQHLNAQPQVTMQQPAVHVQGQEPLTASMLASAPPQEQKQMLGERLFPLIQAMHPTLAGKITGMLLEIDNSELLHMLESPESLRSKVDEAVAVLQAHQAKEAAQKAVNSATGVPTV
eIF4H inh retest: further read-out of eIF4H inh, marked with its call; inhibition, %; compound at 20 µM; confirmation average;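 mean of two retest wells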
PABP FP inh retest: second read-out of PABP FP inh, no call of its own (marks repeat the call); inhibition, %; compound at 20 µM; confirmation repeats;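 mean of two retest wells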
MT1-MMP act inh RFP: further read-out of MT1-MMP act inh, marked with its call; RFP signal change, %; measured here: RFP expression control read;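 0 = vehicle wells; hits needed this value within 50% of zero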
The depositor's hits bear a star; i = inactive; nt = no result given; & = joins results of further samples. A portion of the library; count on the stated rates, not on these rows.

SMILES	eIF4H inh	Rce1 inh	UUG fidelity	CSC inhib	MT1-MMP act inh	MT1-MMP act inh RFP	Env fusion inh	PABP FP inh	others
O=S(=O)(c1cccc(Cl)c1)N1CCCC1	-3	i	nt	-12	-3	0	nt	2
CCC(c1nnc(SCC(=O)NNC(=O)c2ccccc2)n1Cc1ccccc1)N(C)C (stereo not given)	nt	i	-15	-1	2	7	-6	nt
Cc1nn(-c2ccccc2)c(C)c1C=O	-5	i	-14	-7	6	5	-3	-7
O=C(CSc1ccc(-c2ccc(F)cc2)nn1)NCc1ccco1	5	i	nt	-1	-3	-3	-4	-2
COc1cccc(C(=O)N2CCN(Cc3ccccc3Br)CC2)c1	12	i	-13	nt	2	-1	20	14
COCC(=O)N(C)C[C@@H]1Oc2ncc(Br)cc2C(=O)N([C@@H](C)CO)C[C@H]1C	nt	nt	-10&-15&-3	nt	-2	3	-22	nt
C=CCc1cccc(C2Nc3ccccc3C(=O)N2O)c1O (stereo not given)	3	i	-9	nt	1	0	nt	-9
CSc1cccc(NC(=O)CN(C)S(=O)(=O)c2cnc[nH]2)c1	-1	i	-23	-2	-4	1	4	7
CCN(CC(=O)Nc1c(F)cccc1F)C(=O)c1cc(S(=O)(=O)N2CCOCC2)ccc1N1CCCC1	nt	i	nt	nt	-5	0	-22	nt
CCOC(=O)c1c(NC(=O)CN2CCCCC2)sc2c1CCCC2O (stereo not given)	-5	i	-4	64	-3	-12	35	6
COc1cc2c(cc1OC)C(C)N(C(=O)Nc1ccccc1)CC2 (stereo not given)	-18	i	0	nt	-6	-13	-59	-10
O=C(NCc1ccncc1)c1ccc(NS(=O)(=O)c2ccc(F)cc2)cc1	nt	nt	-14	-3	-2	0	-6	nt
COc1ccc(C(CNC(=O)c2cc3c(s2)CCCC3)N2CCOCC2)cc1 (stereo not given)	-4	i	-3	6	-1	2	-65	12
CSc1nc2c(c(C(F)(F)F)n1)CC(C)CC2 (stereo not given)	0	i	nt	-14	-1	-2	nt	14
CC1(c2nnc(-c3ccncc3)o2)CC(c2ccc(Cl)cc2)=NO1 (stereo not given)	nt	i	-12	3	-4	-20	10	nt
CCCc1nc2c3ccccc3ccn2c1Cc1ccc(C)cc1	nt	nt	6	nt	-6	-5	-136	nt
Cc1cc(C)cc(N(C(=O)Cn2nnc(-c3ccccc3)n2)C(C(=O)NC2CCCCC2)c2ccccn2)c1 (stereo not given)	5	i	-4	14	-1	0	-4	12
Cc1ccc(OCC(=O)c2ccc3c(c2)CCCC3)cc1C	5	i	-14	23	0	-4	nt	10
CCOc1ccccc1C1CC(=O)Nc2cc(C)c(C)cc21 (stereo not given)	-3	i	8	32	-5	-16	-11	-8
CCc1c(C)c(C#N)c2nc3ccccc3n2c1Cl	4	i	nt	nt	nt	nt	nt	1
CCOC(=O)C(Sc1ncc(C#N)c(N)n1)C(C)C (stereo not given)	24	i	6	0	-5	-4	nt	40
Cc1ccc(C(C)C)c(OCCCN2CC(C)OC(C)C2)c1 (stereo not given)	5	i	7	-11	-3	1	nt	10
CCC(=O)Oc1ccc(NC(=O)c2ccco2)cc1	6	i	-22	-12	6	8	1	4
CC(=O)Nc1ccc(S(=O)(=O)N2CCNC(=O)C2)cc1	nt	nt	nt	-15	7	3	-8	nt
CCOC(=O)c1ccc(NC(=O)C(=O)NCCc2ccc(OC)cc2)cc1	7	i	nt	-6	1	-1	-3	3
CC(C)c1nc(Cl)c(C#N)c2c1CCC2	-4	i	nt	-7	-3	-2	28	-3
CCCCc1cc(=O)oc2c(C)c(OCc3nn[nH]n3)ccc12	-3	i	-14	4	0	2	14	6
CCOc1ccccc1NC(=O)NCc1ccco1	-3	i	-20	-15	1	-1	12	-5
O=C(N/N=C1\CCS(=O)(=O)c2ccc(F)cc21)c1ccc([N+](=O)[O-])cc1	10	i	-14	-10	1	-1	2	6
O=C(NCC[C@@H]1C[C@@H]2C=C[C@H]1C2)c1cc(COc2ccc(F)cc2F)on1	-8	i	-4	10	3	7	29	-3
O=C(CN1C(=O)c2ccccc2S1(=O)=O)NCc1ccccc1	4	i	-13	-1	1	3	-3	0
CNC(=O)c1ccc(-c2cc(C(F)(F)F)nn2C)s1	6	i	1	-2	2	1	-24	-1
COC(=O)c1cn(NC(=O)/C=C/c2cccc(OC)c2OC)c(=O)c2ccccc12	3	i	nt	3	nt	nt	-13	-5
CC(C)Nc1ccc(Nc2ccnc3cc4ccccc4cc23)cc1	-10	i	nt	108*	-2	-26	-83	16
Cc1ccc(Nc2nc(-c3ccc(O)c(O)c3)cs2)nc1	-11	i	nt	nt	nt	nt	-16	0
COc1ccc(CCNC(=O)CCC(=O)N2CCN(S(=O)(=O)c3ccccc3)CC2)cc1OC	-12	i	5	-6	-2	3	-10	-2
Cc1ccc(S(=O)(=O)CCN2CCN(c3ccccn3)CC2)cc1	-6	i	-21	-15	-2	-1	6	1
FC(F)(F)c1ccc(Oc2ccccc2Cl)nc1	-4	i	nt	-2	3	8	-13	0
Cc1ccc(CN2CCN(Cc3ccc(Oc4ncccn4)cc3)CC2CCO)cc1 (stereo not given)	-3	i	-3	-5	nt	nt	5	10
O=C(Nc1cc(C(F)(F)F)ccc1N1CCOCC1)c1ccccc1F	0	i	nt	-10	-9	-5	nt	13
COc1ccc(CCNC(=O)COC(=O)Cc2ccc(OC)cc2)cc1	2	i	5	nt	-1	4	-1	11
CC(CNC(=O)c1ccc(-c2ccccc2)cc1)CN(C)C (stereo not given)	-11	i	-6	nt	5	5	-32	-12
O=C(Nc1ccc2ccccc2c1)/C(=C\c1ccc2c(c1)OCO2)NC(=O)c1ccco1	-6	i	nt	1	-7	-8	-3	-5
Cc1cccc(C)c1N(CC(=O)N/N=C/c1cc(Br)c(C)o1)S(C)(=O)=O	-9	i	nt	6	-1	-1	nt	-7
Cc1ccc2nc(-c3cc(N)cc(N)c3)oc2c1	18	i	-14	2	2	5	-200	-1
CCCn1ccnc1SCC(=O)Nc1c(C)n(C)n(-c2ccccc2)c1=O	nt	nt	-12	nt	-2	1	-5	nt
CN(C)c1ccc(CC(=O)N2CCCCC2c2cc(C(=O)Nc3ccccc3Cl)no2)cc1 (stereo not given)	nt	nt	-15	nt	-7	-27	11	nt
O=C(Nc1nncs1)C1c2ccccc2Oc2ccccc21	-2	i	nt	-9	-8	-1	59*	-6
Cc1cc(-c2ccc(C(C)C)c(S(=O)(=O)Nc3cc(C)on3)c2)on1	1	i	nt	-25	-1	2	-5	3
CCOC(=O)C1=C(C)NC(C)=C(C(=O)OCC)C1c1ccco1	2	i	0	-5	2	-1	-27	-4
O=c1cc(N2CCc3ccccc32)[nH]c(=O)n1Cc1ccc(F)cc1	-1	i	-14	-13	-5	0	nt	10
CN(C(=O)CSc1nc2ccccc2c(=O)n1-c1ccccc1F)C1CCS(=O)(=O)C1 (stereo not given)	nt	nt	-15	-11	1	1	11	nt
COc1ccccc1Nc1ncccc1[N+](=O)[O-]	-7	i	-3	-2	3	3	-16	8
Cc1ccc2nc(N3CCN(C=O)CC3)nc(-c3ccccc3)c2c1	-3	i	5	10	-4	-9	3	-11
CCN1CCN(c2cc(C(C)(C)C)nc3c(-c4ccccc4)c(C)nn23)CC1	-4	i	4	140*	6	1	14	-13
O=C(Cc1ccccc1)NCCc1cn2ccsc2n1	-2	i	-3	-6	-5	0	14	-1
CCc1ncc(CN2CCCC(C(=O)Nc3cccc(-c4ccc(F)cc4)c3)C2)cn1 (stereo not given)	2	nt	-3	3	2	-2	nt	-2
CC(=O)c1cnc2nc(SCc3ccc(Cl)cc3)nn2c1C	1	i	-14	-12	2	0	16	-8
NS(=O)(=O)c1ccc2nc(NC(=O)c3ccncc3)sc2c1	4	i	nt	13	0	-2	-28	8
Cc1c(C)c2ccc(OS(C)(=O)=O)c(C)c2oc1=O	-5	i	nt	-10	3	6	2	-6
More entries:
SMILES	eIF4H inh	Rce1 inh	UUG fidelity	CSC inhib	MT1-MMP act inh	MT1-MMP act inh RFP	Env fusion inh	PABP FP inh	others
O=c1[nH]cnc2c1ncn2[C@@H]1C[C@@H](O)[C@H](CO)O1	4	i	-15	-6	6	8	-6	6
CCC(=O)Nc1cc(C)c(NC(=O)c2ccco2)cn1	-14	nt	-23	-9	3	0	-2	-4
COc1cccc(CNC(=O)Cn2ccc3cc(S(=O)(=O)N4CCC(C)CC4)ccc32)c1	-19	i	-11	-9	2	-3	-9	2
Cc1cc(C)n(S(=O)(=O)c2cccc([N+](=O)[O-])c2)n1	-11	i	-19	-10	-2	0	-1	-7
COC(=O)Cc1c(C)c2ccc(OCc3nn[nH]n3)cc2oc1=O	-7	i	-25	-14	2	6	-3	25
O=[N+]([O-])c1cc(C2Nc3cccc4cccc(c34)N2)ccc1Cl	96	i	-29	2	0	1	6	-1	eIF4H inh retest=30;PABP FP inh retest=12
Cc1ccc(C(=O)NNC(=O)Cn2ccc(C(F)(F)F)n2)o1	nt	i	-20	nt	nt	nt	7	nt
Nc1ncnc2c1ncn2C1OC(CO)C(O)C1O (stereo not given)	-10	i	-16	-8	10	12	-8	-10
O=S(=O)(c1cccc(Br)c1)N1CCN(CCc2ccccc2)CC1	11	i	-16	56	0	-6	9	11
N#C/C(C(=O)NCc1ccco1)=C1/SC=C(c2ccccc2)N1c1ccccc1	-2	i	-7	62	0	-1	-22	5
O=C(Nc1cc2c(cc1Br)OCCO2)c1cccs1	-4	i	-10	-6	4	3	nt	-9
CCCCc1c(O)nc(SCC(=O)N2CCCCCC2)[nH]c1=O	3	i	-12	-8	2	5	-11	5
CC(=O)Nc1cccc(NC(=O)c2cccc(-c3ccc(O)cc3)c2)c1	-3	i	-9	nt	-14	-19	-39	2
CC1CCCCN1C(=O)COC(=O)c1cc(Cl)c2c(c1)OCO2 (stereo not given)	nt	nt	-8	nt	4	4	-20	nt
COc1ccc(NC(=O)c2ccc(NC(=O)c3cccs3)cc2)cc1	56	i	-13	19	-5	-2	8	12	eIF4H inh retest=26;PABP FP inh retest=5

Looked up by compound from the list above (2):
SMILES	eIF4H inh	Rce1 inh	UUG fidelity	CSC inhib	MT1-MMP act inh	MT1-MMP act inh RFP	Env fusion inh	PABP FP inh	others
O=[N+]([O-])c1cc(C2Nc3cccc4cccc(c34)N2)ccc1Cl	96	i	-29	2	0	1	6	-1	eIF4H inh retest=30;PABP FP inh retest=12
COC(=O)Cc1c(C)c2ccc(OCc3nn[nH]n3)cc2oc1=O	-7	i	-25	-14	2	6	-3	25

Next entries follow:
SMILES	eIF4H inh	Rce1 inh	UUG fidelity	CSC inhib	MT1-MMP act inh	MT1-MMP act inh RFP	Env fusion inh	PABP FP inh	others
CCn1c(CNC(=O)c2ccco2)nnc1SCC(=O)Nc1cccc(F)c1	-3	i	nt	7	1	5	-1	0
Cc1ccc(-n2c(=O)cc(N3CCN(C(=O)c4ccco4)CC3)[nH]c2=O)cc1	5	i	-7	5	4	11	-8	7
CCN(CC)S(=O)(=O)c1ccc(Cl)c(C(=O)NC2CCN(Cc3ccccc3)CC2)c1	-6	i	-8	-4	3	-5	-2	3
COc1ccc(S(=O)(=O)Nc2cc(C)cc(C)n2)c2ccccc12	-3	i	-11	6	5	1	nt	4
COc1ccc(S(=O)(=O)n2nc(OC(C)=O)cc2N(C(C)=O)C(C)=O)cc1	-2	i	-8	-20	5	2	-66	4
CC(Cc1ccccc1)NC(=O)C1CCCNC1=O (stereo not given)	-7	i	-27	nt	6	5	nt	6
C[C@H](NC(=O)c1ccco1)C(=O)Nc1nnc(SCc2ccccc2)s1	nt	nt	-12	18	3	0	nt	nt
